Screening results deposited in PubChem by ICCB-Longwood Screening Facility, Harvard Medical School.
AID504770: growth inhibition of E. coli YBA685, primary screen, V. cholerae RctB inhibitors | 0.27% of 130,000 active | AID 504770, 2011 | z-score (no concentration beside the values) | E. coli YBA685 rctB-dependent plasmid, OD600 growth, 3 h; hits give low values;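 active = z-score under -2 on both plates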;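 also: wells of about 30 µL received 100 nL stock; score is relative to mean and SD of the test wells; the first replicate is given; strong numbers were not always called active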
CapD inh: Bacillus anthracis CapD inhibitors, primary screen, biochemical, fluorescence intensity; AID 492967, 2010; z-score (no concentration beside the values); purified CapD enzyme, fluorescence intensity read-out; hits give low values; some hits fall short of the stated cut; CapD gamma-glutamyltranspeptidase (Bacillus anthracis Ames Ancestor); 0.23% of 140,000 active;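 active = z-score under -4 in either of two replicates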;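 also: stock transfer was 100 nL into about 40 µL; score is relative to mean and spread of the plate; one replicate is shown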
* hit, by the source's call; . = no result given.

SMILES	AID504770	CapD inh
CCc1ccc(NS(=O)(=O)c2ccc3[nH]cc(C(=O)N4CCCCC4)c(=O)c3c2)cc1	1.1	0.78
Cc1cc(NN)nc(-c2ccccc2O)n1	-0.5	-0.46
CC(=O)Oc1ccc2c(c1)oc(=O)c1ccccc12	-0.35	0.38
O=C(N/N=C/c1cccc(S(=O)(=O)N2CCOCC2)c1)C1=COCCO1	-0.05	.
Cc1ccc(/C=C(\C#N)S(=O)(=O)c2c(N)oc(C)c2C)cc1	1.9	-3.5
Cn1c(C2CC2)n[nH]c1=S	2	.
OC(CSc1ccc(Cl)c(Cl)c1)CN1CCN(c2ccccc2)CC1 (centres undefined)	.	-0.39
O=C(CN1C(=O)C(=O)N(Cc2ccccc2)C1=O)c1ccccc1Cl	.	-0.57
N#Cc1ccc(COC(=O)c2cc3ccccc3c(=O)[nH]2)cc1	0.2	.
O=C1OC(c2ccccc2)=N/C1=C\c1ccccc1C(F)(F)F	0	-0.075
O=C(CSc1nnc(-c2ccncc2)o1)NC1C2CC3CC(C2)CC1C3 (centres undefined)	1.2	.
CC12CN3CC(C)(CN(C1)C3c1ccc(O)cc1O)C2=O (centres undefined)	-1.7	-0.84
CC1CCCCC1NC(=O)COC(=O)/C=C/c1ccc2c(c1)OCO2 (centres undefined)	-0.85	.
Cn1nnnc1SCCNCc1ccccn1	-0.5	.
CCOC(=O)C1=CN(Cc2ccc(F)cc2)C=C(C(=O)OCC)C1c1cc(OC)c(O)c([N+](=O)[O-])c1	.	1.3
COc1ccc(C(=O)Nc2ncnc3sc4c(c23)CCCC4)cc1OC	-0.55	4.7
Clc1ncc(C=NCc2ccccc2)s1	1.1	-0.76
O=C1CN(c2ccccc2)C(=S)N1C(=O)c1ccccc1	-0.95	.
COc1cc2c(cc1OC)C(C)N(S(=O)(=O)c1ccc3[nH]c(=O)ccc3c1)CC2 (centres undefined)	0.25	0.025
CCOC(=O)C1=C(C)N=c2s/c(=C\c3ccc(OCC(=O)O)cc3)c(=O)n2C1c1ccc(F)cc1 (centres undefined)	.	-0.44
O=C(CCS(=O)(=O)c1ccc(Br)cc1)N1CCCCCC1	0.15	0.22
O=C(CSc1ccccc1)N1CCC(n2cccc2)CC1	-0.5	0.52
CCOC(=O)c1c(NC(=O)COC(=O)/C=C/c2ccco2)sc(CC)c1C	0.2	.
CCc1ccc(OCc2ccc(C(=O)Nc3nc4ccccc4n3CCN3CCCCC3)o2)cc1	0	2.1
CCOC(=O)c1cnc2c(C(F)(F)F)cccc2c1N1CCN(C)CC1	1.8	0.33
COC(=O)c1ccc(NC(=O)N2CCOc3ccc(C)cc32)cc1	1.8	0.17
C=CCn1c(=S)sc2c(C(C#N)C#N)ncnc21	2.1	0.19
Cc1ccc(C(=O)n2nc(C)c(Sc3ncccn3)c2C)cc1	1.6	0.4
COc1ccccc1N(CC(=O)Nc1cc(C)on1)S(=O)(=O)c1ccc(Cl)cc1	0.4	.
CCOC(=O)c1c(C)c(C#N)c(/N=C/N(C)C)n1-c1ccc(Cl)cc1Cl	0.95	-0.085
COC(=O)c1ccccc1NS(=O)(=O)c1cccc2c1C(=O)c1ccccc1C2=O	.	-0.48
CC(Sc1n[nH]c(-c2cccs2)n1)C(=O)Nc1ccc(C(N)=O)cc1 (centres undefined)	-0.05	.
Cc1cccc(-c2noc(-c3ccno3)n2)c1	0.5	-0.27
CCCCn1c(N)c(C(=S)NC(=O)CC(C)C)c(=O)n(C)c1=O	-0.05	.
COCCCNC(=O)CSc1nc(NC2CCCCC2)c2ccccc2n1	.	17
COP(=O)(OC)C(O)C(Cl)(Cl)Cl (centres undefined)	.	-0.43
CC(C)Oc1cccc(-c2nc(-c3ccccn3)no2)c1	2.2	.
CCCC(=O)N1c2ccccc2C(=C2SC(C(=O)OCC)=C(C(=O)OCC)S2)C(=S)C1(C)C	.	0.025
O=S(=O)(N=Nc1c(O)n(CO)c2ccccc12)c1ccc(Br)cc1	0.85	.
CC(=O)NC1=NN(C(C)=O)C2(S1)C(=O)Nc1ccccc12 (centres undefined)	-0.4	.
CCN(CC)CCNc1cc(-c2cccs2)nc2ccccc12	0.1	50
CN(N)P(=S)(c1ccccc1)N(C)N	1.4	.
COC(=O)c1ccc(Oc2ccc(C3SCCS3)cc2)o1	-0.6	1.1
O=C(NCc1cc2ccccc2s1)c1ccc(N2CCOCC2)nc1	0.3	-0.36
O=C(CSc1n[nH]c(=O)n1Cc1ccccc1)NC(=O)Cc1ccccc1	-0.25	.
Cc1cc(C)cc(NC(=O)c2ocnc2C)c1	-0.95	.
O=C(c1ccc(F)cc1)c1c[nH]c(C(=O)NCCCN2CCOCC2)c1	.	-0.26
Nc1nc(COC(=O)c2cc(S(=O)(=O)NC3CC3)ccc2Br)nc(Nc2ccccc2)n1	-1	.
CC(C)(C)C(=O)Nc1ccccc1C(=O)N1CCC(c2c[nH]c3ccccc23)CC1	.	-0.32
CS(=O)(=O)c1nncn1-c1ccccc1	-0.5	-0.05
N#C/C(=C/Nc1ccccc1)c1ccsc1	-0.8	-2.1
c1ccc(NN=C2CCCCCCC2)cc1	-0.2	0.085
COc1ccc(Oc2c(F)c(F)nc(F)c2Cl)cc1	-2.2	9.2
C=CCC(CC=C)(C(N)=O)c1ccccc1	0.2	0.32
Cc1nc(C(=O)Nc2ccc(Cl)cc2)nn1-c1ccc([N+](=O)[O-])cc1	.	-0.86
CN(C)c1ccc(CNC(=O)N(Cc2ccc(OCc3ccccc3)c(OCc3ccccc3)c2)Cc2ccco2)cc1	.	-0.32
COc1ccc2c(c1)nc(NCCCO)n2Cc1ccccc1	-0.2	.
Cc1oc(-c2ccccc2)cc1C(=O)NCc1ccncc1	0.15	0.93
CC(C)(C)C(=O)NC1CCNCC1	0.15	.
CCOC(=O)c1cc(-c2ccc(S(=O)(=O)NCC3CCCN3CC)s2)on1 (centres undefined)	-0.2	-0.6
The list continues.
SMILES	AID504770	CapD inh
CC(Sc1nc2c([nH]1)c(=O)n(C)c(=O)n2C)C(=O)O (centres undefined)	.	4.5
COc1ccc(CCN(C(=O)c2ccc(F)cc2)C2=CC3CCC(C2)N3C)cc1OC (centres undefined)	.	0.31
Cc1ccc(NC(=O)C2CC2C)c(Cl)c1 (centres undefined)	-0.2	.
COc1cccc(NC(=O)c2cccc3c2SCCC3=O)c1	0.5	-0.76
O=C(Cn1cnc2sc3c(c2c1=O)CCCC3)Nc1ccc(Oc2ccc(Cl)cc2)cc1	.	-0.8
CCOC(=O)N1CCN(c2ncnc3c2c(-c2ccccc2)cn3-c2ccc(C)cc2)CC1	.	2.2
COC(=O)/C(=C\c1cccnc1)NC(=O)c1ccc(OCc2ccccc2)cc1	0.7	-0.83
O=C(c1cccc(S(=O)(=O)N2CCOCC2)c1)N1CCSC1=NCc1ccccc1	-0.2	.
Cc1sc2ncn3c(=O)c4ccccc4nc3c2c1C	-0.1	.
CC(C)N1CCC(NS(=O)(=O)c2c(F)cc(F)cc2Br)CC1	0.05	.
C[C@]12CCC3C(CC[C@@H]4C[C@H](O)CC[C@]34C)C1CCC2=O (some centres undefined)	.	0.055
O=S1(=O)CC2N=C(N/N=C/c3ccccc3)SC2C1 (centres undefined)	1.1	.
Cc1ccc2scc(CC#N)c2c1	-0.5	0.24
O=C(Cn1nc(-c2ccccc2)ccc1=O)NCCCN1CCCC1	-0.6	0.43
CN=C(NC#N)NCCSCC1N=CN=C1C (centres undefined)	.	0.16
CCc1ccc(NC(=O)CSc2nc3ccccc3c(=O)n2CC2CCC(C(=O)NCC3CCCO3)CC2)cc1 (centres undefined)	.	-1.1
O=C(O)CSCc1nc2ccccc2[nH]c1=O	1.8	10
c1ccc(C2CC3CCCCC3CO2)cc1 (centres undefined)	-0.3	0.1
CCOc1ccc(C2C(C#N)=C(SCc3ccccc3)NC(=O)C2C(=O)OC)cc1 (centres undefined)	.	-0.2
O=C(O)CCC(=O)N1CCN(C(=O)c2ccc(F)cc2Cl)CC1	.	0.51

Fetched by compound from the list above (7):
SMILES	AID504770	CapD inh
Cn1nnnc1SCCNCc1ccccn1	-0.5	.
C=CCC(CC=C)(C(N)=O)c1ccccc1	0.2	0.32
N#Cc1ccc(COC(=O)c2cc3ccccc3c(=O)[nH]2)cc1	0.2	.
Cc1cccc(-c2noc(-c3ccno3)n2)c1	0.5	-0.27
CCN(CC)CCNc1cc(-c2cccs2)nc2ccccc12	0.1	50
O=C(c1ccc(F)cc1)c1c[nH]c(C(=O)NCCCN2CCOCC2)c1	.	-0.26
CN(C)c1ccc(CNC(=O)N(Cc2ccc(OCc3ccccc3)c(OCc3ccccc3)c2)Cc2ccco2)cc1	.	-0.32

More entries:
SMILES	AID504770	CapD inh
CC(Oc1ccc(/C=c2/sc3nc4ccccc4n3c2=O)cc1)C(=O)O (centres undefined)	0.6	-0.53
Cc1ncc([N+](=O)[O-])n1CCOC(=O)N1CCC(C(O)(c2ccccc2)c2ccccc2)CC1	.	-1.9
CCOc1ccc(-n2c(=S)sc3c(=O)[nH]c(SCC(=O)NC(C)CC)nc32)cc1 (centres undefined)	.	0.8
Cc1ccsc1C(=O)OCC(=O)c1ccccc1	-0.3	-0.91
N#Cc1c(SCc2cccc(F)c2)sc(C(=O)c2ccccc2)c1N	.	-1.4
N#Cc1c(Cl)cccc1I	-1.1	-0.24
CCCOc1ccc(/C=N/NC(=O)Cc2csc(-c3ccccc3)n2)cc1	.	0.4
COc1ccc(OCC(O)Cn2c(NCCCn3ccnc3)nc3c2c(=O)n(C)c(=O)n3C)cc1 (centres undefined)	.	-1.3
N#Cc1cc(-c2ccccc2)nnc1Sc1cccc(C(F)(F)F)c1	.	-0.08
COC(=O)c1sc(N)c(C(=O)OC)c1CSc1nc2sc3c(c2c(=O)n1C)CCC3	0.45	.
N#Cc1cccc(C(=O)OCC(=O)NC2CC2)c1	0.3	.
CCCN1C(=O)c2ccc(C(=O)O)cc2C1=O	-0.9	-0.21
CCCn1c(SCC(=O)NC(C)(C#N)C(C)C)n[nH]c1=O (centres undefined)	-0.5	.
O=C(O)c1cc2ccccc2c(=O)[nH]1	-0.85	.
Cc1onc(-c2ccccc2)c1N	-1.2	-0.14
O=C(/C=C/c1cccs1)Oc1ccc(Cl)cc1	-0.95	-1.5
Cc1ccc(C2CC(c3cccs3)=NN2C(=O)CSc2c[nH]c3ccccc23)cc1 (centres undefined)	.	0.085
CSc1ncccc1C(=O)Nc1ccc2c(C)cc(=O)oc2c1	-0.9	.
CCC(C)c1ccc(NCN2C(=O)c3ccccc3C2=O)cc1 (centres undefined)	.	0.12
OC(COCc1ccccc1)Cn1c2ccccc2c2ccccc21 (centres undefined)	-0.15	13

Whole records, quoted from the list. Values in the order: AID504770	CapD inh
CC(Oc1ccc(/C=c2/sc3nc4ccccc4n3c2=O)cc1)C(=O)O (centres undefined) as listed: 0.6	-0.53
O=C(O)c1cc2ccccc2c(=O)[nH]1 as listed: -0.85	.
Cc1ncc([N+](=O)[O-])n1CCOC(=O)N1CCC(C(O)(c2ccccc2)c2ccccc2)CC1 as listed: .	-1.9
N#Cc1c(Cl)cccc1I as listed: -1.1	-0.24
O=C(/C=C/c1cccs1)Oc1ccc(Cl)cc1 as listed: -0.95	-1.5

Additional compounds follow:
SMILES	AID504770	CapD inh
Cc1cc(Cl)nc(SCC(=O)c2ccccc2)n1	-0.25	.
COc1ccc(C2N(c3ccc(Cl)cc3)CCN2c2ccc(Cl)cc2)cc1Br	.	-0.35
COc1cccc(COC(=O)c2nc3nc(C)cc(C)n3n2)c1	-1.1	.
O=C(Nc1cccc(O)c1)c1cc(-c2ccc3c(c2)OCO3)on1	0.75	-0.03
Cc1ccc(NC(=O)c2c(Cl)nc3ccccn23)cc1	0.2	0.17
CC1=NN(c2ccccc2)C(=O)/C1=C\c1ccc[nH]1	1.6	.
CCc1ccc(/C(C)=N/N=C(N)N)cc1	-1	0.15
COc1ccc(N2Cc3ccccc3C2=NC(=O)c2ccncc2)cc1	-0.3	-0.65
Cc1cc(C)c(C(=O)COC(=O)c2cccc(OCc3c(C)noc3C)c2)cc1C	-0.2	.
CC1=C(C(=O)Nc2ccccn2)C(c2ccccc2Cl)n2ncnc2N1 (centres undefined)	.	0.43
CCOC(=O)c1c(NC(=O)c2cc3ccccc3o2)sc2c1CC(C)(C)OC2	1.4	4.7
O=C(OCCN1CCCCC1)c1ccc(O)cc1	-0.75	-0.21
CC(=O)N1CCn2c3c(c(=O)c4cc(C)ccc42)CCC31 (centres undefined)	1.6	25
COc1ccc2c(Cl)c(C(=O)NN)sc2c1	-0.3	.
O=C1N(C2CCCCC2)C(=NC2CCCCC2)SC12CC2	0.85	0.88
CC1=C(C(=O)Nc2ccc(Br)cn2)C(c2ccc(Cl)c([N+](=O)[O-])c2)C2=C(CC(C)(C)CC2=O)N1 (centres undefined)	.	-0.54
NC1=NC(=O)/C(=C/c2cn(Cc3ccc(Cl)c(Cl)c3)c3ccccc23)S1	.	-0.43
CC(C)(C)N1NC2(CCCCC2)NC1=O	-0.95	-0.58
CCOc1ccc(NC(=O)c2c(NC(=O)c3ccccc3)sc3c2CCCCC3)cc1	.	-0.47
Cc1cc(C(=O)Cn2c(=O)/c(=C\c3ccsc3)s/c2=C\C(=O)C(C)(C)C)c(C)n1C	0.35	.
Cn1nc(C(=O)O)c2ccccc2c1=O	0	0.14
COc1cc(/C=C2/C(=O)N(c3ccc(C(=O)O)cc3)N=C2C)ccc1OC(=O)c1cccs1	.	-0.33

Sorted by SMILES length (descending): 5 of the compounds above.
SMILES	AID504770	CapD inh
CCc1ccc(NC(=O)CSc2nc3ccccc3c(=O)n2CC2CCC(C(=O)NCC3CCCO3)CC2)cc1 (centres undefined)	.	-1.1
COc1cc2c(cc1OC)C(C)N(S(=O)(=O)c1ccc3[nH]c(=O)ccc3c1)CC2 (centres undefined)	0.25	0.025
CC1CCCCC1NC(=O)COC(=O)/C=C/c1ccc2c(c1)OCO2 (centres undefined)	-0.85	.
CC(Sc1nc2c([nH]1)c(=O)n(C)c(=O)n2C)C(=O)O (centres undefined)	.	4.5
CCCN1C(=O)c2ccc(C(=O)O)cc2C1=O	-0.9	-0.21

Only part of the results is shown; rates above refer to the full screens.
